Screening data (PubChem BioAssay)
Sa RN4220 lethal = kills Staphylococcus aureus RN4220; S. aureus RN4220 growth, OD600, 16 h; inhibition, % (concentration not given with the values); 330,000 compounds, 0.33% hits;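 active = z-score of -3 or lower and OD600 up to 0.18 on both plates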;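 also: plate controls were untreated cells for no effect and reference antibiotic for full effect; stock transfer was 100 nL into about 80 µL; one replicate is shown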
PrP 5UTR inh = suppresses PrP 5' UTR mRNA reporter expression. inhibition, % (no concentration beside the values). AID 488862. cell-based PrP 5' UTR mRNA reporter, plate reader. 340,000 compounds, 0.35% hits;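 active = every replicate at 50% or more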;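 also: 0 = median of the neutral control wells; tested in H4 reporter cells; numbers are from one replicate; inactives centre near -14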
Sa ugtP lethal = growth inhibition of S. aureus ugtP deletion strain; S. aureus RN4220 ugtP deletion, OD600 growth, 16 h; some inactives read as strong as hits; growth inhibition, % (concentration not given with the values); 330,000 compounds, 0.54% hits;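 active = z-score under -3 and OD600 up to 0.15 on both plates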;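 also: plate controls were untreated wells for no effect and antibiotic for full effect; wells of about 80 µL received 100 nL stock; the first replicate is given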
BJeLR lethal = BJeLR cell viability loss. BJeLR (HRASV12) viability, CellTiter-Glo ATP luminescence, 48 h; reference of the scale not given here. inhibition, % (concentration not given with the values). 300,000 compounds, 0.17% hits;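 active = replicate mean above 50%; inconclusive = above 50% but judged a plate artefact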;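 also: 50 nL library stock added to about 25 µL; numbers are from one replicate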
Autofluor counter = flagged as autofluorescent in microsphere protease counterscreen | fluorescence intensity (test concentration not listed) | compound autofluorescence counterscreen, microsphere flow cytometry; stronger effect = higher value | 360,000 compounds, 3.1% hits;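 active = at least 3 SD above the mean of all compounds, about 16000 in these data; inconclusive = too few beads counted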;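 also: 100 nL of 1 mM stock went into each well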
Mtb hypoxia inh = reduces hypoxia-regulated biosensor signal in M. tuberculosis; M. tuberculosis hypoxia-regulated fluorescent reporter, fluorescence; fluorescence inhibition, % (concentration not given with the values); 300,000 compounds, 0.1% hits;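 active = 35 to 45% if threefold the growth effect, above 45% if 1.5-fold the growth effect; inactive = the rest, general growth blockers included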;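 also: wells of about 50 µL received 100 nL stock; 0% = vehicle wells and 100% = reference inhibitor wells; whole bacteria with a GFP reporter of the hypoxia response; strong numbers were not always called active; many hits fall short of the cut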
Mtb hypoxia inh growth = recorded beside Mtb hypoxia inh, whose call it bears; growth inhibition, %; measured here: M. tuberculosis growth (absorbance);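 0% = vehicle and 100% = reference antibiotic; read after six days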
Active calls of the source: *; ? = inconclusive; . = no result given. Hits appear at their usual frequency; 3.9% or so of the library scored in one or more.

SMILES | Sa RN4220 lethal | PrP 5UTR inh | Sa ugtP lethal | BJeLR lethal | Autofluor counter | Mtb hypoxia inh | Mtb hypoxia inh growth
COc1ccccc1-c1cc(SC)c(C#N)c(=O)o1 | . | -48 | . | -14 | 2945 | . | .
N#Cc1ccc(CSc2nnc(Nc3ccccc3)s2)cc1 | -3.3 | -17 | 2 | -4 | 4671 | . | .
CSc1ncc(CN2CCN(C(C)C)C(CCO)C2)cn1 (configuration not stated) | 5.5 | -27 | -6 | 2 | 4423 | -9 | -7
O=c1oc2c3c4c(cc2c2c1CCC2)OCCN4CCC3 | -6.6 | -12 | -6 | . | 4239 | . | .
COc1ccc(CN2CCN(C(=O)C3CC(=O)N(C4CCCCCC4)C3)CC2)c(OC)c1OC (configuration not stated) | 1.4 | -5 | -3 | -8 | 2671 | 5 | 3
CCOc1ccccc1N1CCN(C(=O)c2cccc(S(=O)(=O)N3CCOCC3)c2)CC1 | 6.6 | -10 | 6 | . | 5095 | 3 | 3
O=c1o[nH]c(-c2ccccc2)c1C=Nc1ccc(Cl)cc1 | 0.7 | -18 | -1 | -1 | 2451 | 6 | 5
Cc1cc(C)c2nc(N(CCCN(C)C)C(=O)c3ccc4c(c3)CCCC4)sc2c1 | -15 | . | -24 | 3 | . | 19 | 17
Cc1ccc(CCCOC(=O)CN2CCCCC2)cc1 | 4.7 | -20 | 11 | 0 | 4713 | 8 | -5
O=C(Nc1ccc(Cl)c(Cl)c1)Nc1nnc(CC2=CCCCC2)s1 | -0.7 | -30 | -6 | 20 | 3063 | 3 | -9
CC1CCc2sc3nc(NCc4ccco4)n4ncnc4c3c2C1 (configuration not stated) | 15 | -21 | 20 | 0 | 3765 | . | .
Cc1cccc(C)c1OCc1nnc(SCC(=O)NCc2ccccc2)o1 | 0.4 | -33 | 0 | 1 | 11004 | 4 | 9
CSCCC(NC(=O)c1ccc(Br)cc1)C(=O)O (configuration not stated) | 9.7 | -17 | 6 | 7 | 4395 | 0 | -9
O=[N+]([O-])c1cccc(/C=N/Nc2nc(NCc3ccccc3)nc(N3CCOCC3)n2)c1 | . | -11 | . | 3 | 2131 | . | .
Cc1cc(Br)ccc1NC(=O)C1CCN(C(=O)c2ccco2)CC1 | 5.8 | 1 | 8 | -12 | 4687 | -9 | 3
c1ccc(Cc2nnc3n2N=C(c2ccccc2)CS3)cc1 | 11 | -9 | 7 | 3 | 4339 | -18 | -19
COC(=O)c1ccc(Nc2nc(C)nc3c2nnn3Cc2ccccc2)cc1 | -2.1 | -16 | -19 | 15 | 3456 | 6 | 7
COc1ccccc1C(=O)NCCC(=O)N(C)CC(=O)Nc1c(Cl)cccc1Cl | 1.7 | -2 | 3 | 3 | 4989 | 5 | -6
CCOC(=O)N1CCC(NC(=O)c2cccc3c2C(=O)N(Cc2cccnc2)C3)CC1 | 1.3 | -11 | 8 | -9 | 4155 | . | .
CC(C(=O)NN=C(c1ccccc1)c1ccccc1)N1CCCC1 (configuration not stated) | 6.1 | 48 | 6 | 6 | 3271 | 19 | 11
COc1ccccc1N(C)S(=O)(=O)c1ccc(C(=O)OCC(=O)Nc2ccccc2F)cc1 | 3.5 | -10 | 4 | -7 | 3629 | -5 | -3
Cc1cc(NS(=O)(=O)c2ccc(NC(=O)Cc3ccc(Cl)c(Cl)c3)cc2)no1 | 9.1 | -21 | 3 | . | 4897 | 7 | -2
CC1(C)CC(=O)N(CC(=O)N2CCN(c3ncccn3)CC2)c2ccccc2S1(=O)=O | -4.4 | -10 | -4 | . | 5346 | . | .
CC1CCN(C(=O)c2[nH]cnc2C(=O)NCc2ccc(CNC(=O)OC(C)(C)C)cc2)CC1 | 6.6 | -5 | 9 | . | 4061 | -2 | 3
c1ccc(-n2c(SCc3ccncc3)nnc2-c2ccco2)cc1 | -0.6 | -16 | 9 | 0 | 2975 | . | .
Continuation:
SMILES | Sa RN4220 lethal | PrP 5UTR inh | Sa ugtP lethal | BJeLR lethal | Autofluor counter | Mtb hypoxia inh | Mtb hypoxia inh growth
Cn1c(SCC(=O)Nc2ccc(Br)cn2)nnc1C1CC1 | 2.5 | -12 | 2 | -24 | 4731 | -7 | 5
O=C(c1ccccc1)N1CCN(CCc2ccccc2)CC1 | 3.5 | -23 | 4 | 0 | 3007 | -2 | 0
CNc1nc(-c2ccc3c(c2)CCN3C(=O)c2ccccc2F)c(C)s1 | 7.1 | -17 | -1 | 11 | 3466 | 1 | 7
O=S(=O)(NCc1ccccc1F)NCc1ccccc1F | 4.8 | -5 | 2 | -1 | 2051 | 3 | 6
Cc1ccccc1OCc1nnc(SCC(=O)Nc2ccc(N3CCOCC3)c(Cl)c2)n1C | -0.9 | -5 | 0 | 0 | 16029 | -4 | -3
CN(C)c1nc2n(c(=O)n1)CCS2 | 0.0 | 0 | -5 | -12 | 3435 | -10 | 2
O=c1[nH]c(=O)n(Cc2ccccc2)c2c1C(C(F)(F)F)(C(F)(F)F)N=C(c1ccco1)N2 | -1.2 | -15 | -7 | 8 | 9457 | 4 | 9
Clc1cccc(Cl)c1Cn1nnc(-c2cccs2)n1 | 1.2 | -47 | -4 | -4 | 5963 | 1 | 7
COc1ccc(CCNS(=O)(=O)c2csc(C(N)=O)c2)cc1OC | -2.0 | 0 | -7 | 8 | 6132 | -2 | 3
Cc1cccc(NC(=O)COC(=O)c2n[nH]c3ccccc23)c1C | 1.1 | -24 | 2 | . | 3938 | 7 | 2
N#CCSc1nnc(COc2ccccc2)n1-c1ccccc1 | 5.6 | -13 | 16 | -4 | 3552 | 5 | 2
CC(SCC(=O)Nc1ccc(F)cc1)c1nc2ccccc2c(=O)[nH]1 (configuration not stated) | 4.4 | 8 | 2 | 0 | 4206 | -5 | -4
Nc1cccc(C#Cc2ccc3c(c2)C(=O)/C(=C/c2ccsc2)O3)c1 | 7.5 | -27 | 2 | . | 3608 | 2 | -1
COc1ccccc1N(CC(=O)NN=Cc1ccc(C(=O)O)cc1)S(=O)(=O)c1ccc(C)cc1 | 5.4 | . | -1 | . | . | 8 | 7
Cc1cc(=O)oc2c(C)c(OCC(=O)Nc3cccnc3)ccc12 | -1.2 | -17 | 3 | 2 | 5899 | 4 | 6
O=C(COC(=O)c1ccc(Br)o1)NCCNC(=O)COC(=O)c1ccc(Br)o1 | 2.2 | -13 | 7 | -2 | ? | 4 | 0
CC1=NN(c2ccccc2)C(=O)/C1=C/c1c(O)n(-c2ccc(F)c(Cl)c2)[nH]c1=O | 14 | . | 11 | 1 | . | 12 | 2
COC(=O)C(CCCCN1C(=O)C2C3C=CC(C3)C2C1=O)N1C(=O)C2C3C=CC(C3)C2C1=O (configuration not stated) | 1.9 | -19 | 6 | 12 | 3505 | . | .
CCCN(CCC)C(=O)Cn1c(=O)c2ccccc2n2c(=S)sc(-c3ccccc3C)c12 | -2.2 | -6 | 12 | -13 | 2651 | 0 | 7
CCOC(=O)c1ccccc1N/C=C/C(=O)c1ccccc1 | 2.8 | -10 | -6 | -5 | 3086 | 11 | 3
CC(C)OC(=O)C1=C2SCC(=O)N2C(N)=C(C#N)C1 | 2.8 | -6 | 3 | 3 | 3164 | . | .
O=C(NCCCn1ccnc1)C(Cc1ccccc1)N1C(=O)c2ccccc2C1=O (configuration not stated) | 5.3 | -8 | 13 | 5 | . | 2 | -3
COc1ccc2oc(=O)c(C(=O)N3CCCc4ccccc43)cc2c1 | 4.3 | -11 | 2 | 18 | 9965 | 16 | 5
Cc1ccc(C=NNC(=O)c2nnn(-c3nonc3N)c2CSc2ccccc2)cc1 | 3.7 | . | 6 | . | . | -1 | -6
O=C(CCCn1c(=O)[nH]c2cc(Cl)ccc2c1=O)NCCCN1CCN(c2ccc(F)cc2)CC1 | 4.5 | -37 | 11 | 13 | 4435 | 3 | 9
The list goes on:
SMILES | Sa RN4220 lethal | PrP 5UTR inh | Sa ugtP lethal | BJeLR lethal | Autofluor counter | Mtb hypoxia inh | Mtb hypoxia inh growth
Cc1cc(C)cc(SCc2noc(C(=O)NCCCN3CCOCC3)c2C(=O)NCCCN2CCOCC2)c1 | 4.0 | -20 | 3 | 8 | 2969 | 15 | 13
COC(=O)c1ccsc1NC(=O)c1ccccc1 | 8.3 | -28 | 13 | -8 | 5449 | 10 | -1
Cc1cc(N2CCOCC2)n2ncc(-c3ccc(Cl)cc3)c2n1 | 1.1 | -3 | 58 | -7 | 3838 | 6 | 0
COc1cc(C(=O)Nc2ccc(NC(=O)c3ccccc3)nc2)cc(OC)c1OC | -12 | -14 | 14 | -4 | 3754 | -5 | 7
CCS(=O)(=O)N1CCN(c2ccc(C(=O)NC3C4CC5CC(C4)CC3C5)cc2[N+](=O)[O-])CC1 (configuration not stated) | 3.0 | -12 | -15 | -3 | 2475 | 7 | 8
O=C(O)/C=C/C(=O)NC1CCCCC1 | 3.0 | -15 | 1 | 17 | 6884 | 1 | 2
CCc1ccccc1NC(=O)c1cc(S(=O)(=O)N(C)C)ccc1N1CCCC1 | 0.9 | -5 | -1 | 12 | 5671 | 7 | 7
COC(=O)C1=C(C)Nc2nnnn2C1c1cccnc1 (configuration not stated) | -3.3 | -7 | -2 | 2 | 2696 | . | .
O=C(NCCc1ccccc1F)C1CCCN1S(=O)(=O)c1ccc2ccccc2c1 (configuration not stated) | -5.0 | -13 | 2 | -7 | 20558* | 13 | 11
O=C(COC(=O)c1cccc(Cl)c1)NC1CCCCCCC1 | 2.0 | -9 | -1 | . | 3751 | 8 | -8
O=C(C1=CC(c2ccc(C(F)(F)F)cc2)CC(OCCCCO)O1)N1CCCCCCC1 (configuration not stated) | 1.4 | . | -16 | . | . | 0 | -6
CC(=O)N1CCc2c(sc(NC(=O)CCS(=O)(=O)c3ccccc3)c2C#N)C1 | 0.7 | -8 | 5 | 7 | 6104 | 8 | 3
NS(=O)(=O)c1ccc(NC(=S)NCC2CCCO2)cc1 (configuration not stated) | 1.5 | -26 | 8 | 8 | 2404 | 5 | 9
CCCOC(=O)c1ccc(NC(=O)COC)cc1 | 2.2 | -25 | 4 | 7 | 2543 | . | .
COc1cccc(OC)c1C(=O)Nc1ccccc1N1CCCCC1 | -3.6 | -23 | -11 | -7 | 3950 | 1 | -6
COC(=O)c1ccccc1OCC(=O)N1CCN(c2ccc(Cl)cc2)CC1 | -6.8 | -1 | 1 | -5 | 7039 | 2 | -4
NC(Cn1oc(=O)[nH]c1=O)C(=O)O (configuration not stated) | 8.7 | . | 2 | . | . | 2 | 2
O=C(NC1(C(F)(F)F)NC(=O)N(C2CCCCC2)C1=O)C1CC1 (configuration not stated) | -1.3 | -39 | 0 | 13 | 4413 | 3 | -1

Six entries out of the list, ordered by heavy-atom count, descending:
SMILES | Sa RN4220 lethal | PrP 5UTR inh | Sa ugtP lethal | BJeLR lethal | Autofluor counter | Mtb hypoxia inh | Mtb hypoxia inh growth
Cc1ccccc1OCc1nnc(SCC(=O)Nc2ccc(N3CCOCC3)c(Cl)c2)n1C | -0.9 | -5 | 0 | 0 | 16029 | -4 | -3
O=c1[nH]c(=O)n(Cc2ccccc2)c2c1C(C(F)(F)F)(C(F)(F)F)N=C(c1ccco1)N2 | -1.2 | -15 | -7 | 8 | 9457 | 4 | 9
Cc1ccc(C=NNC(=O)c2nnn(-c3nonc3N)c2CSc2ccccc2)cc1 | 3.7 | . | 6 | . | . | -1 | -6
COC(=O)c1ccc(Nc2nc(C)nc3c2nnn3Cc2ccccc2)cc1 | -2.1 | -16 | -19 | 15 | 3456 | 6 | 7
CCOC(=O)c1ccccc1N/C=C/C(=O)c1ccccc1 | 2.8 | -10 | -6 | -5 | 3086 | 11 | 3
O=S(=O)(NCc1ccccc1F)NCc1ccccc1F | 4.8 | -5 | 2 | -1 | 2051 | 3 | 6

Single records (already shown).
`O=C(NC1(C(F)(F)F)NC(=O)N(C2CCCCC2)C1=O)C1CC1` (configuration not stated) as listed: Sa RN4220 lethal: -1.3; PrP 5UTR inh: -39; Sa ugtP lethal: 0; BJeLR lethal: 13; Autofluor counter: 4413; Mtb hypoxia inh: 3; Mtb hypoxia inh growth: -1
`O=C(O)/C=C/C(=O)NC1CCCCC1` as listed: Sa RN4220 lethal: 3.0; PrP 5UTR inh: -15; Sa ugtP lethal: 1; BJeLR lethal: 17; Autofluor counter: 6884; Mtb hypoxia inh: 1; Mtb hypoxia inh growth: 2
`COc1cccc(OC)c1C(=O)Nc1ccccc1N1CCCCC1` as listed: Sa RN4220 lethal: -3.6; PrP 5UTR inh: -23; Sa ugtP lethal: -11; BJeLR lethal: -7; Autofluor counter: 3950; Mtb hypoxia inh: 1; Mtb hypoxia inh growth: -6
